TRPML1 inh: qHTS for Inhibitors of the Human Mucolipin Transient Receptor Potential 1 (TRPML1); Mucolipin-1 (Homo sapiens), Q9GZU1; TRPML1-inducible cells, Ca2+ dye fluorescence, FDSS; hits give low values; inhibition of EC80 agonist-evoked calcium signal; AID 624415, 2012; hit rate 0.02% among 390,000; activity change, negative = inhibition, % (concentration not given with the values); in the data active means activity change below about -50%; inconclusive means about -30% to -50%; inactive means above about -30%;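 further: stimulus is agonist 54-4 at its EC80 concentration; on the % scale 0 is the no-effect control and ±100 the full control effect; compound concentration not given in the record; the text of the record puts the active cut at -80%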
Target sequence (Q9GZU1 whole entry, looked up): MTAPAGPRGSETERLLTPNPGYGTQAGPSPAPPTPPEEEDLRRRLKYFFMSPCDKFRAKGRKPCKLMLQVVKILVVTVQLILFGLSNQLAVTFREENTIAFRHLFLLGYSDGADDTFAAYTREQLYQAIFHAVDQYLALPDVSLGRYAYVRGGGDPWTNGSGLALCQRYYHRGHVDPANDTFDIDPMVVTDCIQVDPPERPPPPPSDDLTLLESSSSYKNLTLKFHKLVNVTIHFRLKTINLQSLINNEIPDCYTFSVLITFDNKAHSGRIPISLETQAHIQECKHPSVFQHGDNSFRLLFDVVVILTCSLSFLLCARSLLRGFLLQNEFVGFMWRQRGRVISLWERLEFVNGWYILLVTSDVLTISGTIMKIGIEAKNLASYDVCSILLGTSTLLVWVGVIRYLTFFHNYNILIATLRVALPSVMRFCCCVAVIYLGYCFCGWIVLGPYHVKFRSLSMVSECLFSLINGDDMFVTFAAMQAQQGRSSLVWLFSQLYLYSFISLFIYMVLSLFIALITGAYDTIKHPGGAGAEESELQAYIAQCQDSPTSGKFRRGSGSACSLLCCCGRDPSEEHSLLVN
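Calcium fluorescence in TRPML1-DL cells induced overnight with Tet: a 110 s read after compound pin addition, then a 110 s antagonist read after challenge with 54-4 at 4 uM final (EC80).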
gsp ag: qHTS for Agonist of gsp, the Etiologic Mutation Responsible for Fibrous Dysplasia/McCune-Albright Syndrome: qHTS; gsp mutant cells, cAMP HTRF, 30 min; control for the full effect not named in the record; Potency, µM (highest dose often 76.9 µM), for inactives: at the top dose activation (cAMP increase), usual class: activators; hit rate 0.13% among 340,000; AID 624287, 2012; active = well fitted activation curve with a large enough effect; inconclusive = small, poorly fitted or top-dose-only effect, or another doubt; inactive = no such curve, though single readings can be large or run the other way; cell line not stated here;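 further: phosphodiesterase inhibitor Ro 20-1724 added with compounds to block cAMP breakdown; potency means the concentration at half of the fitted maximal effect; nearly all actives have a fitted effect of over 60% in size; about a fifth of the inactives were tested at one dose only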
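Cells in DMEM/10% FBS with G418 were pretreated with compounds in DMSO plus […] (300 uM stock) for 30 min at 37C. cAMP was measured by HTRF (cAMP-d2 plus anti-cAMP antibody-K) after 30 min at room temperature.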
gsp antagonist: qHTS for Antagonists of gsp, the Etiologic Mutation Responsible for Fibrous Dysplasia/McCune-Albright Syndrome: qHTS; gsp-mutant cells, cAMP HTRF, 30 min; control for the full effect not named in the record; Potency, µM (series often up to 76.9 µM), inactives show top-dose activity change, negative = inhibition, usual class: inhibitors; hit rate 0.4% among 340,000; AID 624288, 2012; active = falling curve of any shape with a large fitted effect; inconclusive = falling curve, mostly with a smaller effect; inactive = flat or rising curve; cell line not stated here;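 further: intracellular cAMP measured with PDE inhibitor Ro 20-1724 present during compound exposure; potency means the concentration at half of the fitted maximal effect; on the % scale 0 is the no-effect control and ±100 the full control effect; nearly all actives have a fitted effect of over 65% in size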
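Measurement of cellular cAMP by homogeneous time-resolved fluorescence following a 30 min compound exposure at 37C. The PDE inhibitor […] was present throughout; the assay buffer was DPBS with 0.05% BSA and 0.005% Tween 20.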
Menin MLL FP FL: qHTS Assay for Inhibitors Targeting the Menin-MLL Interaction in MLL Related Leukemias: Competition With Fluorescein Labeled MLL-derived Peptide | Fluorescence polarization, fluorescein-MLL peptide displacement from menin | FP activity change, % at 61.4 µM | 290,000 tested, under 10 active; inconclusive = falling polarisation curve, or a change in total fluorescence; inactive = total fluorescence flat and polarisation flat or rising; no compound was filed as active; the % refers to the polarisation; negative = inhibition;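 further: % of control where 0% means no effect; inhibitors lower the polarisation; unlabelled MLL peptide was the positive control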
ClpP mod: qHTS Assay for Activators of ClpP; Potency, µM (highest dose often 57.5 µM), without a hit: top-dose activity change, negative = active; AID 651965, 2013; hit rate 1.9% among 340,000; purified B. subtilis ClpP, FRET peptide cleavage, 20 min; active = well fitted falling curve with a large enough effect; inconclusive = small, poorly fitted or top-dose-only effect; inactive = no such curve, though single readings can be large or run the other way; further: potency means the concentration at half of the fitted maximal effect; the source files actives as falling curves though it sought activators and does not explain the sign; nearly all actives have a fitted effect of over 65% in size; many hits overshoot -100%
Target sequence (P80244 whole entry, looked up): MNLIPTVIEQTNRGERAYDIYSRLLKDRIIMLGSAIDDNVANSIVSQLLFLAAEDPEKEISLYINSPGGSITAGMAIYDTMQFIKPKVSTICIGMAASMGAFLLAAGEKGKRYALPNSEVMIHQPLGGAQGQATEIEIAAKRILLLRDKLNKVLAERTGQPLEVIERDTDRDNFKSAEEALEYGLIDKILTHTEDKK
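Purified B. subtilis ClpP, 10 microg/mL final in Tris/HCl pH8 with KCl, BSA, glycerol and Tween-20, cleaved an Abz/nitrotyrosine-quenched decapeptide. Fluorescence (ex 320, em 430) was read at 0 and 20 min at room temperature. Delta was normalized to 5.8 microM ADEP and DMSO/no-enzyme controls.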
TRPML1 agonist: qHTS for Agonists of the Human Mucolipin Transient Receptor Potential 1 (TRPML1); TRPML1-expressing cells, Ca2+ dye fluorescence, FDSS; host cell line not named in the record; reference of the full effect not given here; activation, % (no concentration beside the values); hit rate 0.12% among 410,000; Mucolipin-1 (Homo sapiens), Q9GZU1; in the data active = activation above about 50%; inconclusive = about 30% to 50%; inactive = below about 30%; further: 0% is about no effect; the text of the record puts the active cut at 80%
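TRPML1-DL cells, Tet-induced overnight (~16 h, 37 degrees C), loaded 45-90 min at room temperature with Ca8 no-wash calcium dye plus quencher. FDSS fluorescence: 10 s baseline, compound pin-transfer, 110 s agonist read, then EC80 54-4 (4uM final) and 110 s antagonist read.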
Starred values were filed as active, the others as inactive; ? = inconclusive; / = not tested or not shown; & = joins results of further samples; [ ] = dose if it differs, or a comment.

structure,Menin MLL FP FL,gsp antagonist,ClpP mod,TRPML1 agonist,gsp ag,TRPML1 inh
COc1ccc(N2C(=O)CC(N3CCN(C(=O)c4ccco4)CC3)C2=O)cc1 (centres undefined),-1.3,5.8%,-1.2%,3.2,20.9%,-24.2
Cc1ccc(CN(Cc2ccco2)c2cnc(S(C)(=O)=O)nc2C(=O)Nc2ccccc2Br)o1,/,/,-11.0%,1.7,/,21.8
CCN(CCO)C(=O)c1ccc2oc(Cc3ccc(Cl)cc3)nc2c1,1.1,0.6%,-2.0%,-0.2,-9.9%,-6.1
O=C(CSc1cccc[n+]1[O-])Nc1cc([N+](=O)[O-])ccc1Cl,4.6,6.3%,-0.4%,-1.1,3.6%[15.4 µM],-4.3
O=[N+]([O-])c1cc([N+](=O)[O-])c2n[nH]c(-c3ccccc3)c2c1,0.0,-6.1%,/,1.6,-31.4%[15.4 µM],-2.0
COc1cc(/C=C2\CCCc3c2nc2ccccc2c3C(=O)O)cc([N+](=O)[O-])c1O,-5.2,-15.3%,/,0.4,-2.0%,5.9
CCCCN(C(=O)C1CC(=O)N(Cc2ccc(C)cc2)C1)c1c(N)n(CCCC)c(=O)[nH]c1=O (centres undefined),/,4.8%,22.4µM*,0.6,-8.8%,29.4
Cc1cc(=O)n(CC(=O)NCCN2CCOCC2)c2c1c(C)nn2-c1ccccc1,/,27.3%,-11.4%,-0.8,?,1.9
Cc1nc2nc(CNC(=O)OC(C)(C)C)nn2c(C)c1CCC(=O)NCc1ccc(F)cc1,/,/,-0.5%,1.5,/,-23.4
CC(=O)CSc1ccc(-c2nc3ccccc3[nH]2)cn1,-1.8,-13.7%,1.0%,0.3,-0.3%[15.4 µM],11.3
COc1ccc(-n2cccc2/C=C/[N+](=O)[O-])cc1,9.1,-20.3%,-5.4%,0.7,?,6.7
CC[C@@H](C)CN1C(=O)N[C@@H](c2ccccc2)C(C(C)=O)=C1C,3.8[11.7 µM],5.7%,-4.2%,0.3,19.7%,-13.5
Cc1ccc(/C=N/Nc2ccc(Cl)c(C(=O)O)c2)s1,2.0,-14.4%,-7.2%,-0.3,26.5%,-17.2
CCN(CC)S(=O)(=O)c1ccc(N2CCOCC2)c(NC(=O)c2ccc(=O)[nH]c2)c1,/,19.6%,/,2.0,?,7.2
Cc1cc(NC(=O)c2cccc(S(=O)(=O)N3CCCCC3)c2)no1,/,-8.0%,-2.3%,1.1,-15.0%,6.8
CCCn1cc(CN2CCC(n3nccc3NC(=O)c3ccc4c(c3)OCO4)CC2)c(C)n1,-0.5,-2.7%,-1.9%,0.5,24.6%,18.6
CCOC(=O)Cc1csc(NC(=O)CCCN2C(=O)c3ccccc3C2=O)n1,1.0,6.5%,-1.2%,1.2,4.4%,-1.8
Cc1ccc(-n2ncc3c(=O)n(Cc4cccc(Cl)c4)cnc32)cc1C,/,/,-2.7%,0.2,/,1.0
Cc1nnc(-c2ccc(Oc3ccc(C)c(C)c3)c([N+](=O)[O-])c2)o1,6.5,?,4.0%,3.4,-9.5%,65.9
CCN(CC(=O)Nc1ccccc1OC)C(=O)c1ccc2[nH]c3c(c2c1)CC(C)CC3 (centres undefined),/,?,-11.6%,2.9,-28.0%,11.6
CCOC(=O)N1CCN(C(=O)c2cc(-c3ccncc3)nc3ccccc23)CC1,/,3.5%,-8.7%,-0.6,3.0%,3.5
CCc1ccccc1NC(=S)N1CCN(c2cccc(OC)c2)CC1,-0.8,-2.8%,10µM*,-0.1,1.5%[15.4 µM],-0.8
COC(=O)c1c[nH]n2c(=O)c(Cl)c(C)nc12,-1.2,-7.1%,-5.4%,-0.5,12.2%[15.4 µM],6.4
COc1cc(C(=O)C(=O)c2ccc(O)c(OC)c2)ccc1O,0.4,-10.5%,0.0%,-0.7,-5.3%,7.9
COc1ccc(-n2nnnc2SCC(=O)Nc2nc3c(s2)CCCC3)cc1,1.1,-28.0%,2.6%,-0.4,-2.2%,-7.8
O=C(NC12CC3CC(CC(C3)C1)C2)c1ccc(=O)oc1,-3.0,11.0%,0.9%,-0.4,10.3%,-7.4
Cc1ccc(CSc2nc3c(c(N(C)C)n2)CCCC3)cc1,1.0,?,-3.7%,1.3,-1.1%,13.0
CCC1=C(OC(=O)N(CC)CC)N2C(=O)OC(=NCCc3c[nH]c4ccccc34)[C@]2(Cc2ccccc2)[C@H]2C1=CC[C@H]1C(=O)N(C)C(=O)[C@H]12,2.2&-1.1,-26.9%,-2.7%,0.4,/,2.2
CCc1cccc(NC(=O)Cn2c(-c3ccc(F)cc3)cc(C(C)=O)c2C)c1,/,/,-0.3%,2.2,/,16.1
O=c1[nH]cnc2nc(-c3ccccc3)c(-c3ccccc3)nc12,1.5,0.2%,28.2µM*,-0.8,11.3%,-1.3
Cc1cc(NC(=O)CSc2nc3c([nH]c4ccccc43)c(=O)n2-c2ccccc2F)no1,/,3.8%,-21.1%,0.8&0.5,-2.4%,8.4&-6.3
O=C(NCc1ccccc1Cl)c1cc2ccccc2oc1=O,4.6,0.9%,-0.7%,-0.2,10.5%[15.4 µM],12.1
COc1ccc2oc(C(=O)N(C)CCOc3ccccc3)c(C)c2c1,/,-18.2%,?,0.5,-68.6%[inhibitor],12.9
CC1(C)Cc2cccc(OCC(=O)OCC(=O)Nc3ccc(C(N)=O)cc3)c2O1,/,-1.6%,25.1µM*,1.3,-15.5%,-16.9
CN(C)CCCNC(=S)N1CCN(c2nc(-c3ccccc3)cs2)CC1,-0.1,17.3%,/,1.4,?,-8.5
COc1ccc(CC(=O)N/N=C(\C)CC(=O)Nc2ccc3c(c2)OCCO3)cc1OC,2.5,/,/,-0.3,-9.9%[15.4 µM],5.2
COC(=O)c1cc(NC(=O)Cc2ccccc2[N+](=O)[O-])cc(C(=O)OC)c1,0.2,-14.1%,-1.4%,0.7,-1.9%,-1.0
Cc1cccc(N2CCN(C(=O)CNC(=O)c3ccccc3)CC2)c1C,/,-8.8%,/,-0.7,7.1%[15.4 µM],-0.8
COc1ccc(-c2oc(=O)c3cc(OC)c(OC)cc3c2C#CC2(O)CCCCC2)cc1,/,-7.6%,3.4%,2.5,/,38.2
O=C(Cn1nc(-c2ccc(Cl)cc2)ccc1=O)NCC1CCCO1 (centres undefined),1.1,9.1%,-15.3%,-0.6,-3.7%,2.2
COc1ccc(N2CCN(C(=O)c3ccc(CNS(=O)(=O)c4cccc(OC)c4)cc3)CC2)cc1,/,-19.3%,0.5%,2.3,-50.8%[inhibitor],-8.4
OC(CCN1CC2CCC(CC2)C1)(Cc1ccccc1)c1ccco1 (centres undefined),/,2.9%,2.4%,0.8,6.6%[15.4 µM],17.4
CC(=O)c1c(C)cc(C)c(CSc2nnc(-c3ccco3)o2)c1C,1.0,-18.8%,-0.8%,0.9,-10.4%,14.4
CCn1cc(C(=O)NCc2ccco2)c(=O)c2cc(S(=O)(=O)N3CC(C)CC(C)C3)ccc21 (centres undefined),0.1,-10.7%,-0.8%,1.2,-22.9%,17.9
COc1ccc(C2CCCN2C(=S)Nc2ccccc2C)cc1OC (centres undefined),-0.3,2.6%,/,-0.3,?,-3.9
CCOc1ccc(N(Cc2cc3cc(C)ccc3[nH]c2=O)S(=O)(=O)c2ccccc2)cc1,/,-11.3%,?,-0.5,4.2%[15.4 µM],4.7
COc1ccccc1N1CCN(c2csc3ccc(Cl)cc3c2=O)CC1,/,/,-15.8%,1.8,/,4.0
Cc1ccccc1OCCC(=O)OCC(=O)Nc1c(C)nn(-c2ccccc2)c1C,/,8.6%,/,1.8,-31.4%[15.4 µM],-17.0
O=C1c2ccccc2-c2nc3ccccc3nc21,-1.5,-0.7%,0.3%,-1.0,4.4%,-20.0
COc1ccc(-c2nc(CS(=O)(=O)CC(=O)NC3CCC(C)CC3)c(C)o2)cc1 (centres undefined),0.4,-5.5%,2.7%,1.0,-81.7%[inhibitor],-5.7
O=C1N(Cc2cccc(Cl)c2)C[C@@H]2C[C@@H](c3ccc4nonc4c3)N3CCC[C@@]123,-1.4,-14.7%,1.3%,0.0,-83.9%[inhibitor],42.5
CN(C)c1cccc(C(=O)OCC(=O)N2CCc3ccccc3C2)c1,-3.3,/,/,1.5,-4.2%[15.4 µM],-3.1
O=C(Cc1cccs1)N(c1ccc(F)cc1)C1(C(=O)NC2CCCCC2)CCCC1,-0.9,-13.1%,1.3%,1.5,-126.4%[inhibitor],10.9
CCN(C1CCCCC1)S(=O)(=O)c1ccc(-n2cnnn2)c(C)c1,-1.1,-7.5%,0.9%,-1.5,-7.7%[15.4 µM],0.1
Cc1ccc(NC(=O)/C(C#N)=C/c2ccc(C(C)C)cc2)cc1C,/,/,1.5%,-1.3,/,-4.7
Cc1ccc(S(=O)(=O)Nc2ccc3c(c2)C(=O)N([C@@H](C)CO)C[C@@H](C)[C@@H](CN(C)CC2CC2)OCCCC[C@@H](C)O3)cc1,/,/,1.1%,-0.9,-52.0%[inhibitor],2.0

Following part:
structure,Menin MLL FP FL,gsp antagonist,ClpP mod,TRPML1 agonist,gsp ag,TRPML1 inh
S=C(NCCc1ccccc1)NC1CC1,6.6,7.9%,?,-0.1,10.7%,-1.2
O=C(CCCn1c(=O)[nH]c2cc(Cl)ccc2c1=O)NCCC1=CCCCC1,-2.1,9.7%,-0.1%,-0.8,?,7.5
CCOc1ccc(C2C([N+](=O)[O-])=C(C)N(C)C(=O)N2C)cc1OC (centres undefined),1.4,5.7%,-3.0%,0.7,-4.5%,-15.9
CC1CCCCN1C(=S)NC(=O)c1cc(Br)ccc1Cl (centres undefined),/,5.5%,1.4%,1.1,-106.0%[inhibitor],9.0
CCOC(=O)c1cc(-c2ccc(C)cc2)n(CCC(=O)NCCc2ccc(C)cc2)c1C,/,/,-27.8%,-0.2,/,10.3
